rRNA inh HTS = inhibitors of bacterial rRNA selective over humanized ribosomes; E. coli WT GFP vs humanized-ribosome RFP mutants, fluorescence, 24 h; stronger effect = lower value; DMSO median 0, no signal -100; GFP signal change (wild-type ribosome), % (no concentration beside the values); hit rate 1.6% among 350,000;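 active = significant combined selectivity score with lowered wild-type GFP, culture density cut under 30%, mutant RFP and density less affected; inactive = any of these conditions unmet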; also: one replicate is shown; some compounds called inactive have numbers as strong as hits
HNF4A DNA FP = change in binding of human HNF4 alpha to DNA | AID 1224865 | HNF4a-FITC DNA binding, fluorescence polarization, 1 h | activity change, % at 10 µM | P41235 | hit rate 0.3% among 360,000; in the data active = activity change above about 30%, passing the limit was not always enough;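 also: controls were the assay level and a saturating level of protein; the project sought stronger binding though the title names inhibitors; some compounds called inactive have numbers as strong as hits; positive values seem to mean higher polarization but the record does not say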
Target sequence (P41235 whole entry, looked up): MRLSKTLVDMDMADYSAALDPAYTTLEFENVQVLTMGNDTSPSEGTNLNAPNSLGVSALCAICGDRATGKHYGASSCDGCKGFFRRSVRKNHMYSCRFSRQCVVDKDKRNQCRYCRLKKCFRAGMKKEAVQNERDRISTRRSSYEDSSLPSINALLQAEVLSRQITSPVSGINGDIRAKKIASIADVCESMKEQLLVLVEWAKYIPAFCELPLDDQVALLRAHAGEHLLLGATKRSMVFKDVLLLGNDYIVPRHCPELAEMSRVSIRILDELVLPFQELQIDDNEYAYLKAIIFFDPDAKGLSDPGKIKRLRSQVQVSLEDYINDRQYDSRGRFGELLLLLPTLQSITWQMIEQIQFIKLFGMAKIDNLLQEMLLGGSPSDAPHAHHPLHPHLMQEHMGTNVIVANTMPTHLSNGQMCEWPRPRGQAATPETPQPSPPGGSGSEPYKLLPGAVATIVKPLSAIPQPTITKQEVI
ALR inh = blocks human ALR sulfhydryl oxidase activity; P55789; purified ALR, DTT oxidation, H2O2 HRP-luminol luminescence; inhibition, % (no concentration beside the values); hit rate 3.8% among 290,000;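 active = mean and each replicate at 75% or more; inconclusive = only one of the two met; inactive = neither met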;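 also: stock transfer was 7.5 nL into about 7.5 µL; 0% = neutral wells and 100% = wells with inactivated enzyme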
Target sequence (P55789 whole entry, looked up): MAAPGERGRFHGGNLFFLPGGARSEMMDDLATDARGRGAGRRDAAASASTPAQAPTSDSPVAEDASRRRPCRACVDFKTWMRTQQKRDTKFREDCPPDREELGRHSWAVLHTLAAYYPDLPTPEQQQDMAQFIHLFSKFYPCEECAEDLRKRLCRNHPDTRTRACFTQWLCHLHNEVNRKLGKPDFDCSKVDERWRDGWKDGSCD
MLL AF4-AF9 inh = inhibitors of human MLL-AF4/AF9 interaction; P42568; AlphaScreen, biotin-AF4 peptide binding to FLAG-AF9; inhibition, % at 10 µM; hit rate 0.47% among 350,000;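 active = every replicate reaching a set inhibition limit, whatever the replicate mean, cut at about 25% in these data; inconclusive = mean inhibition reaches that limit but some replicates miss it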;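 also: 0% = plate neutral control median and 100% = total signal loss; the record names both 10 and 1 µM as test concentration; the first replicate is given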
Ecoli growth = blocks Escherichia coli growth | OD600, 23 h; stronger effect = lower value | OD600 absorbance (no concentration beside the values) | hit rate 0.21% among 330,000 | AID 1053175;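 active = OD600 absorbance below the run mean of sample wells minus 3.6 SD, in any replicate, cut at about 0.56 in these data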;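 also: stock transfer was 300 nL into about 60 µL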
FGF22 binding = FGF22 (human) thermal shift binding; Q9HCT0; recombinant FGF22 thermal shift, SYPRO orange fluorescence; percent of sucrose octasulfate shift, DMSO zero; calls only at 9.99 µM; hit rate 1.5% among 340,000;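 active = melting point raised past a set limit in the mean and every replicate; inconclusive = no clear call; three in four hits are not shown here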
Target sequence (Q9HCT0 whole entry, looked up): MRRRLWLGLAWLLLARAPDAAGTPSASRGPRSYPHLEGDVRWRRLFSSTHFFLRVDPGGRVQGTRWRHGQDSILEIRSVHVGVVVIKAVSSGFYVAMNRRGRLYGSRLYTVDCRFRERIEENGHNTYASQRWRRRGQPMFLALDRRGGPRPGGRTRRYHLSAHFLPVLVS
Vif A3G = inhibitors of Vif binding to APOBEC3G peptide, primary screen, biochemical, TR-FRET, GST-Vif 1-94, biotin-A3G peptide, dose response retest (AID 1117319); TR-FRET GST-Vif / biotin-A3G peptide binding; higher % means a stronger effect; test concentration not given here; strong numbers were not always called active; one-dose inhibition, %; IC50 in µM for titrated hits; hit rate 0.57% among 260,000;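 active = above the screen mean plus three standard deviations and confirmed in dose response; inconclusive = results disagree or hit not tested in dose response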;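 also: Vif residues 1-94 fused to GST binding biotinylated APOBEC3G peptide 110-148; 0% = full assay without inhibitor and 100% = GST in place of GST-Vif; retest series ran down from 100 µM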
rRNA inh HTS OD600 = further read-out of rRNA inh HTS, marked with its call; OD600 change, %; measured here: OD600 growth;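 optical density of the mix in the first replicate; 0 = DMSO median and -100 = no signal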
rRNA inh HTS RFP = second read-out of rRNA inh HTS, no call of its own (marks repeat the call); RFP signal change, %; measured here: RFP humanized mutant strains;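 first replicate; 0 = DMSO median and -100 = no signal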
* = called active by the depositor; i = inactive; ? = inconclusive; . = not tested or not shown; & = joins results of further samples. Some of the compounds tested, so the mix of outcomes need not match the whole.

SMILES	rRNA inh HTS	rRNA inh HTS OD600	rRNA inh HTS RFP	HNF4A DNA FP	ALR inh	MLL AF4-AF9 inh	Ecoli growth	FGF22 binding	Vif A3G
COc1ccc(N(C(=O)c2ccn[nH]2)C(C(=O)NC(C)(C)C)c2ccc(F)cc2)cc1 (stereo not drawn)	.	.	.	-1.8	-11	.	0.7	.	-2%
COc1ccc(N2CCN(CCCNC(=O)CC3Oc4ccc(C)cc4NC3=O)CC2)cc1 (stereo not drawn)	-2	3	0.2	-1.1	32	13	0.73	i	28%&2%
O=C(OCC(=O)N1CCC(Cc2ccccc2)CC1)c1cc(Br)ccc1O	7	4	0.3	-3.4	3	-1.2	0.74	i	.
CC(=O)N1c2ccccc2C2CCCC[C@H]21 (stereo partly drawn)	9	11	-0.6	-0.4	2	2.3	.	i	.
COc1ccc(NC(=O)c2[nH]c(C)c(C(C)=O)c2C)cc1	2	6	-1.3	0.4	-3	1.4	0.69	.	2%
COc1ccc(S(=O)(=O)N(C)C[C@H]2Oc3ccc(N(C)C)cc3CC(=O)N([C@@H](C)CO)C[C@@H]2C)cc1	3	13	0.0	.	.	1.3	.	i	.
COc1ccc(CNC(=O)CN(C(=O)c2csnn2)c2cccc3c2CCCC3)cc1	4	5	0.5	2.5	-4	-1.9	0.69	i	.
O=C(c1cccc(Cl)c1)N1CCC(C(=O)N2CCN(Cc3ccccc3)CC2)CC1	0	-3	-1.0	-0.2	0	0.3	0.69	i	.
Cc1ccc(C)c(NC(=O)CSc2nc3nc(-c4cccs4)cc(C(F)(F)F)c3c(=O)[nH]2)c1	-20*	-14*	1.6*	-0.5	1	-1.9	0.73	i	10%
O=C(COC(=O)c1ccccc1[N+](=O)[O-])Nc1cc(S(=O)(=O)N2CCOCC2)ccc1N1CCCC1	4	-3	-0.1	-4.8	.	-10	0.72	i	16%
Nc1ccc(C(=O)Nc2cccc(NC(=O)c3ccc(N)cc3)c2)cc1	-7	0	-1.9	-2.1	-10	-4.3	0.66	i	.
O=C(NC[C@H]1N[C@@H](CO)[C@H]1c1ccc(-c2ccccc2)cc1)c1ccccc1F	2	0	5.9	.	.	-2.6	.	i	.
COc1cc(OC)cc(C(=O)NC(=S)NNC(=O)Cc2cccs2)c1	.	.	.	1.2	99*	-0.1	0.66	i	.
CC(=O)c1[nH]c(C)c(C(=O)N2CCCC(Nc3cccc(F)c3)C2)c1C (stereo not drawn)	7	1	0.0	1.8	75*	2.9	0.68	i	-1%
COc1ccc(NC(=O)Nc2ccc3c(c2)[C@H]2C[C@@H](CC(=O)NCc4ccccc4F)O[C@@H](CO)[C@H]2O3)cc1	3	9	-2.3	.	.	-1.2	.	i	.
CC(=O)Nc1cccc(Nc2ccc(C#N)cc2)c1	-9	-17	-6.3	5.7	.	4.7	.	i	.
CNS(=O)(=O)c1cnccc1N1CCN(c2cccc(C)c2)CC1	.	.	.	-2.6	99*	.	0.7	.	2%
O=C(CN1C(=O)c2ccccc2S1(=O)=O)N1CCc2ccccc2C1	.	.	.	0.8	0	.	0.75	.	-2%
N#C/C(=C/c1ccc(C(=O)O)cc1)C(=O)NCc1ccccc1	8	7	-5.4	-0.8	13	-3.6	0.65	i	14%
O=C(CSc1ncnc2ccccc12)N1CCCC1	8	9	3.2	-3.5	31	-5.0	0.75	i	-7%
Cc1c(C(=O)NCc2cccc([N+](=O)[O-])c2)sc(=O)n1Cc1ccc(F)cc1	-1	12	-0.6	2.3	.	1.5	.	i	.
CC(=O)OC[C@@H]1CN(Cc2ccccc2)C[C@H](n2cnc3c(NCc4ccco4)ncnc32)O1	-1	17	-3.6	5.3	.	2.4	.	i	.
CCCN1C/C(=C/c2ccc3c(c2)OCO3)C(=O)/C(=C/c2ccc3c(c2)OCO3)C1	.	.	.	5.2	.	5.9	0.74	i	.
Cc1ccc(N(CC(=O)O)C2SC(=O)NC2=O)cc1 (stereo not drawn)	.	.	.	-3.3	-5	.	0.68	.	4%
COc1ccc2c(C)cc(C)nc2n1	3	12	1.2	-1.7	-3	-2.1	0.63	i	10%
C[C@H](CO)N1C[C@H](C)[C@@H](CN(C)C(=O)Nc2cccc3ccccc23)Oc2ccc(NC(=O)CCC(F)(F)F)cc2CC1=O	-2	-2	1.0	.	.	0.0	.	i	.
Cc1c(C(=O)N(Cc2ccco2)Cc2cccs2)oc2ccccc12	-11	-17	4.4	-3.4	9	-1.6	0.69	i	9%
Cc1[nH]c(=S)c(C#N)c(-c2ccccc2)c1C(=O)Nc1ccccc1	6	12	5.2	-0.7	70	-6.3	0.67	i	-3%
C[C@H](CO)N1C[C@H](C)[C@@H](CN(C)Cc2ccncc2)Oc2cc(C#C[C@@H](C)O)ccc2S1(=O)=O	-7	-7	2.7	.	.	-3.8	.	i	.
Cc1ccc(S(=O)(=O)N2CCN(C(=O)CSc3nc4ccccc4c(=O)[nH]3)CC2)c(C)c1	.	.	.	1.1	-2	.	0.7	.	9%
Cc1ccccc1C(=O)Nc1ccc(Br)c(C)n1	.	.	.	-5.8	3	.	0.71	.	7%
Cc1ccc(S(=O)(=O)NCC(C)n2nc(C)nc2C)cc1 (stereo not drawn)	4	11	-2.3	2.0	-69	-0.4	0.69	i	.
CC=Cc1ccc2n(c1=O)C[C@H]1[C@H](CO)[C@@H](C(=O)N(C)C)N(CC3CC3)[C@@H]21 (mixture of isomers)	1	1	-1.6	.	.	-0.5	.	i	.
COCCCNCCOCCOc1ccc(C)cc1[N+](=O)[O-]	.	.	.	-1.6	-12	.	0.7	.	1%
Cc1ccc(-n2ccnc(SCC(=O)NC3CCCC3)c2=O)cc1F	3	10	2.1	-2.9	94*	-1.7	0.65	i	-4%
C[C@H]1CN([C@@H](C)CO)C(=O)c2cc(NS(=O)(=O)c3cccs3)ccc2O[C@@H]1CN(C)Cc1ccc(C(F)(F)F)cc1	1	-19	1.1	.	.	2.0	.	i	.

Single entries from the results shown.
rRNA inh HTS with CC=Cc1ccc2n(c1=O)C[C@H]1[C@H](CO)[C@@H](C(=O)N(C)C)N(CC3CC3)[C@@H]21 (mixture of isomers) : 1
HNF4A DNA FP with Cc1[nH]c(=S)c(C#N)c(-c2ccccc2)c1C(=O)Nc1ccccc1 : -0.7

(next part)
SMILES	rRNA inh HTS	rRNA inh HTS OD600	rRNA inh HTS RFP	HNF4A DNA FP	ALR inh	MLL AF4-AF9 inh	Ecoli growth	FGF22 binding	Vif A3G
C/C(=N\NC(=O)C(NC(=O)c1ccccc1)C(C)C)c1ccccc1 (stereo not drawn)	.	.	.	-3.0	1	.	.	.	0%
CCOC(=O)[C@]12CCCC=C1N(Cc1cccc3ccccc13)C(=O)[C@H](CC(=O)NCc1ccc(OC)c(OC)c1)C2	.	.	.	-3.5	.	5.6	.	i	.
C[C@H](CO)N1C[C@H](C)[C@H](CN(C)C(=O)Nc2ccc3c(c2)OCO3)Oc2ccc(NC(=O)Nc3ccc(C(F)(F)F)cc3)cc2C1=O	-3	1	-3.2	.	.	3.3	.	i	.
Cc1ccc2c(c1)C1(C(=O)N2)N2CCCC2C(C(=O)c2ccc3ccccc3c2)C12C(=O)Nc1ccccc12 (stereo not drawn)	2	3	1.3	1.4	.	6.1	0.7	i	.
O=C(N[C@H]1CC[C@H](CCNC(=O)c2ccccc2F)O[C@H]1CO)c1ccc2c(c1)OCO2	2	4	0.8	.	.	0.8	.	i	.
COc1cc2sc3ccc(-c4ccc5[nH]ccc5c4)cc3c(=O)c2cc1OC	.	.	.	3.7	-2	.	0.7	.	.
N#C[C@H]1[C@H](c2ccccc2-c2ccccc2F)[C@@H](CO)N1C(=O)c1cccc(F)c1	1	-1	4.8	.	.	-2.1	.	i	.
Cc1ccc(C(=O)NN2CC(O)=C(c3nc(-c4cccc([N+](=O)[O-])c4)cs3)C2=N)cc1	21	11	-0.8	-6.1	-8	-0.4	0.69	i	21%
COc1ccccc1NC(=O)C(=O)N/N=C(\C)CC(=O)Nc1ccccc1C(F)(F)F	3	4	0.3	-2.8	2	0.0	.	i	2%
CCN(CC)C1=CC(=[N+]2CCCC2)CC(C)(C)C1	.	.	.	-1.2	-4	.	0.7	.	0%
CCCCn1c2nc3ccccc3nc2c2c(=O)n(CCC)cnc21	.	.	.	-0.7	-3	.	0.77	.	-12%
CCC(C)NC(=S)N1CCN(C(c2ccccc2)c2ccccc2)CC1 (stereo not drawn)	.	.	.	0.1	-36	.	0.75	.	1%
OC[C@@H]1CN(Cc2ccco2)C[C@H](n2cnc3c(NC4CCCC4)ncnc32)O1	7	1	0.0	2.9	.	-4.2	.	i	.
CC(C)NC(=O)N(C)C[C@H]1Oc2cc(C#Cc3cccc(F)c3)ccc2S(=O)(=O)N([C@H](C)CO)C[C@H]1C	-9	-44	28	.	.	0.4	.	i	.
O=C(NC(Cc1c[nH]c2ccccc12)C(=O)Nc1ccc(F)c([N+](=O)[O-])c1)c1cccs1 (stereo not drawn)	.	.	.	-6.9	1	.	0.73	.	.
Cc1ccc2nc(NCCc3ccccc3)c3nncn3c2c1	8	5	3.4	0.7	.	0.3	0.71	i	-22%
S=C(NCCSCc1ccc(Cl)cc1)Nc1ccccc1	.	.	.	1.6	-2	.	0.64	.	6%
CCOC(=O)C1=C(C)Nc2sc(C(=O)c3ccc(F)cc3)c(N)c2C1c1ccc(C(=O)OC)cc1 (stereo not drawn)	.	.	.	2.7	13	.	0.68	.	.
COC(=O)C(/C=N/OCc1ccc([N+](=O)[O-])cc1)NC(=O)c1ccccc1 (stereo not drawn)	.	.	.	-0.1	15	.	.	.	2%
CCN(CC(F)(F)C(F)F)S(=O)(=O)c1ccc(NC(=O)OC)cc1	.	.	.	3.0	-5	.	0.67	.	20%
COc1ccc(CN2CC(=O)N(c3ccccc3OC)C2=S)cc1OC	-9	-26	1.0	-1.3	-28	0.0	0.7	i	.
Cn1c(CNS(=O)(=O)c2ccc(Br)cc2)n[nH]c1=S	.	.	.	1.1	91*	.	0.67	.	27%
C[C@H](CO)N1C[C@H](C)[C@@H](CN(C)C(=O)CCCN(C)C)OCCCC[C@H](C)Oc2ccc(NS(=O)(=O)c3cccs3)cc2C1=O	3	11	0.8	.	.	-2.3	.	i	.
COc1ccccc1NS(=O)(=O)c1cc(N=N/C(C(=O)Nc2ccc(Cl)cc2)=C(/C)O)ccc1C	8	11	-0.9	17	-4	-0.2	0.72	i	.
CC(CCc1ccccc1)NCc1ccncc1 (stereo not drawn)	.	.	.	-1.0	-18	.	0.67	.	3%
COC(=O)C1=C(C)N(c2ccc(C)c(C)c2)/C(=C/c2ccco2)C1=O	.	.	.	-6.2	-12	.	0.71	.	?
C[C@H](NC(=O)C[C@H]1CC[C@@H]2[C@H](COC[C@@H](O)CN2C(=O)Nc2cccc(F)c2)O1)c1ccccc1	-13	-17	-1.7	.	.	-1.3	.	i	.
COc1ccc(NC(=O)C=C(C)C)cc1Cl	.	.	.	1.9	6	.	0.65	.	-3%
Cc1ccccc1C(=O)N1CCC(C(=O)N(C)CCOc2ccccc2)CC1	9	3	-0.2	-6.1	-4	2.6	0.71	i	.
Nc1nc(NCc2ccccc2)nc(NCCO)c1[N+](=O)[O-]	4	7	2.5	-0.3	-14	-2.6	0.65	i	2%

Compound activity: PubChem, several laboratories
